Assay outcomes from PubChem.
PABP polyA inh – PABP-poly(A) binding inhibition; P11940; PABP-poly(A) RNA binding, fluorescence polarization; inhibition, % at 35 µM; 290,000 compounds, 1% hits; AID 2014;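 active = 50% or more with normal probe brightness, or confirmed in later tests; inconclusive = above 50% with abnormal brightness, or retests that disagree; inactive = below 50% or failed in later tests; about a fifth of its hits are not listed in these tables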;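 also: calls also rest on retests at 20 µM and on dose response follow-up; controls were probe without protein and protein plus probe with vehicle; some compounds called inactive have numbers as strong as hits; many hits fall short of the cut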
Target sequence (P11940 whole entry, looked up): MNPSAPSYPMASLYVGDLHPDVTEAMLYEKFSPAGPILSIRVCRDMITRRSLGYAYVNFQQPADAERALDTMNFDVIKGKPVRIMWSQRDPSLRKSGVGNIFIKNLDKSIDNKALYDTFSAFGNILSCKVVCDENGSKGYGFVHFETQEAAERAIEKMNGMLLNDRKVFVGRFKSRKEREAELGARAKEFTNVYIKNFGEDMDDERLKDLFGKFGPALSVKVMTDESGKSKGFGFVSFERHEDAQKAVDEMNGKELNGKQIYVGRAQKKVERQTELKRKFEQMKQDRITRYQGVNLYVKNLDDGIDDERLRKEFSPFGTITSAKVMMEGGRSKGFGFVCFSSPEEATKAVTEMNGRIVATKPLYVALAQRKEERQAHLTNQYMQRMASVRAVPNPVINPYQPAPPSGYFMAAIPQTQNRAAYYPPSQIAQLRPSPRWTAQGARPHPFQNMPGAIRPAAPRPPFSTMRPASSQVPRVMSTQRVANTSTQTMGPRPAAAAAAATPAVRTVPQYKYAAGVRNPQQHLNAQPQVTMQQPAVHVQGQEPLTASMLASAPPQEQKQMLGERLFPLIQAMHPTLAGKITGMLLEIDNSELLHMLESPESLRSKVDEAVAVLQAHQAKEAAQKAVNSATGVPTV
eIF4H FP inh – inhibitors of RNA binding by human eIF4H; inhibition, % at 35 µM; 290,000 compounds, 0.94% hits; eIF4H fluorescence polarization binding assay; Q15056; AID 2012;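 active = 50% or more with normal probe brightness, or confirmed in later tests; inconclusive = above 50% with abnormal brightness, or retests that disagree; inactive = below 50% or failed in later tests; about a fifth of its hits are not listed in these tables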;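 also: calls also rest on retests at 20 µM and on dose response follow-up; 0% = protein and probe with vehicle and 100% = probe without protein; strong numbers were not always called active; many hits fall short of the cut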
UUG fidelity – yeast start codon fidelity modulation; S. cerevisiae UUG-firefly luciferase reporter, luminescence/redox ratio; activity score, % at 18.7 µM; 350,000 compounds, 0.13% hits;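 active = replicate mean at a twofold rise or more, about +100% in these data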;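 also: firefly luciferase made from a UUG start codon reports start codon fidelity; reporter light over untreated wells divided by growth signal over untreated wells; some hits fall short of that in this replicate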
Env fusion inh – blocks HIV Env-driven cell-cell fusion | 360,000 compounds, 1.1% hits | AID 651610 | inhibition, % at 12.3 µM | HeLa-JRFL Env/CEM21 cell fusion, luciferase;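 active = mean replicate inhibition score of at least 50 and every replicate individually at or above 50; inconclusive = only one of the two criteria met; inactive = mean below 50 and not all replicates reaching 50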;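 also: 0% = plate neutral controls and 100% = maraviroc near 300 nM; one replicate is shown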
CSC inhib – blocks cancer stem cells. cancer stem cell-like cells viability, luminescence. inhibition, % at 7.5 µM. 300,000 compounds, 1.1% hits;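 active = mean at 75% or more and at least half the replicates too; inconclusive = mean and replicates disagree; tested in HMLE shEcad cells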;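 also: 0% = median of negative and 100% = median of positive control wells; the first replicate is given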
MT1-MMP act inh – MT1-MMP (human) activation inhibition | HT1080 RFP-PRO-GFP cells, GFP/RFP ratio fluorescence, overnight; percent of plate control window, DMSO zero | GFP/RFP ratio change, % at 20 µM | P50281 | 360,000 compounds, 0.061% hits;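 active = GFP/RFP ratio change of at least 30% with cell ATP level not reduced by more than half and red fluorescence within 50% of control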; also: strong numbers were not always called active
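system = RFP-PRO-GFP reporter HT1080 cells | dosing = 20 µM single dose, 1% DMSO | timing = overnight cell settling, then overnight compound exposure, 37 °C, 5% CO2 | read-out basis = GFP/RFP fluorescence ratio | controls = DMSO and RFP-L50D-GFP cell wells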
Rce1 inh – inhibitors of yeast Ras-converting enzyme. Q03530. yeast membranes, quenched prenylated peptide cleavage fluorescence. calls only. 290,000 compounds, 0.27% hits;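 active = fall in fluorescence gain of 50% or more versus controls, with final raw signal at or below 3038400; inconclusive = same 50% fall but final raw signal above 3038400; inactive = fall in fluorescence gain under 50%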;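 also: plate controls were neutral control wells for no effect and wells lacking membranes for full effect; tested at 10 µM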
MT1-MMP act inh RFP – second read-out of MT1-MMP act inh, no call of its own (marks repeat the call); RFP signal change, %; measured here: RFP expression control read;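 0 = vehicle wells; hits needed this value within 50% of zero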
* marks the source's active call; other numbers are inactive results; & = joins results of further samples.

C=CCc1ccc(OC(=O)NC2CCCCC2)c(OC)c1 was read as PABP polyA inh -12, eIF4H FP inh -8, UUG fidelity -6, Env fusion inh -26, CSC inhib 6, MT1-MMP act inh 0, Rce1 inh inactive and MT1-MMP act inh RFP 2.
`Cc1c(Cl)cccc1NC(=O)[C@@H](NC(=O)c1ccccc1Cl)C(C)C` gave PABP polyA inh -12, eIF4H FP inh -4, Env fusion inh 7, CSC inhib 2, MT1-MMP act inh -5, Rce1 inh inactive and MT1-MMP act inh RFP -1.
Screening CCNS(=O)(=O)c1ccc(NC(=O)Cn2cc([N+](=O)[O-])cn2)cc1 returned PABP polyA inh 0, eIF4H FP inh 2, Env fusion inh -5, CSC inhib 4, MT1-MMP act inh 1, Rce1 inh inactive and MT1-MMP act inh RFP -2.
For CCC(C(=O)NC1CCN(C)CC1)c1ccccc1 (centres undefined) the results were PABP polyA inh 0, eIF4H FP inh 8, UUG fidelity -10, Env fusion inh -11, CSC inhib -13, MT1-MMP act inh -7, Rce1 inh inactive and MT1-MMP act inh RFP -1.
C/C(=N/NS(C)(=O)=O)c1ccc2ccccc2c1 was read as PABP polyA inh -2, eIF4H FP inh 7, UUG fidelity -24, Env fusion inh inactive, CSC inhib -16, MT1-MMP act inh -2, Rce1 inh inactive and MT1-MMP act inh RFP 1.
`NC1=NC[C@@H](Cc2ccc(O)cc2)N1CCC12CC3CC(CC(C3)C1)C2` gave UUG fidelity -20, Env fusion inh 8, CSC inhib -5, MT1-MMP act inh 4, Rce1 inh inactive and MT1-MMP act inh RFP -4.
Screening Cc1cnc(C(=O)OCC(=O)N2CCc3ccccc32)cn1 returned PABP polyA inh 9, eIF4H FP inh 5, Env fusion inh -9, CSC inhib -5, MT1-MMP act inh -4, Rce1 inh inactive and MT1-MMP act inh RFP -5.
CCc1sc(C(=O)Nc2cc(S(=O)(=O)N3CCOCC3)ccc2OC)cc1C was read as UUG fidelity -4, Env fusion inh 21, CSC inhib -12, MT1-MMP act inh -8 and MT1-MMP act inh RFP -5.
`COc1ccc(OCCNC(=O)c2ccc(C)cc2)cc1` gave PABP polyA inh 6, eIF4H FP inh -3, UUG fidelity 5, Env fusion inh -12, CSC inhib -5, MT1-MMP act inh 4, Rce1 inh inactive and MT1-MMP act inh RFP 4.
Screening CCC1CCCCN1CCCNC(=O)CCNC(=O)Cn1cnc2ccccc2c1=O (centres undefined) returned PABP polyA inh -1, eIF4H FP inh 2, UUG fidelity -15, Env fusion inh 1, CSC inhib -5, MT1-MMP act inh 0, Rce1 inh inactive and MT1-MMP act inh RFP -2.
For O=C(c1ccc2snnc2c1)N1CCN(c2ccccn2)CC1 the results were PABP polyA inh 2, eIF4H FP inh 1, UUG fidelity -15, CSC inhib 1, MT1-MMP act inh -1, Rce1 inh inactive and MT1-MMP act inh RFP 1.
`Cc1ccnc(NCc2ccc(Cl)cc2)c1` gave PABP polyA inh -10, eIF4H FP inh -10, UUG fidelity -20, Env fusion inh -33, CSC inhib 11, MT1-MMP act inh 1, Rce1 inh inactive and MT1-MMP act inh RFP -1.
For CCn1nc(C(=O)Nc2ccc(S(=O)(=O)Nc3nccs3)cc2)c2ccccc2c1=O the results were PABP polyA inh 35, eIF4H FP inh 20, UUG fidelity -6, Env fusion inh -52, CSC inhib -1, MT1-MMP act inh -11, Rce1 inh inactive and MT1-MMP act inh RFP -3.
For Cc1cc(C)nc(Oc2ccc(Br)cc2Br)n1 the results were PABP polyA inh 0, eIF4H FP inh -4, Env fusion inh inconclusive, MT1-MMP act inh 5, Rce1 inh inactive and MT1-MMP act inh RFP 7.
For CCOC(=O)c1c(Nc2ccccc2N)cc(C)nc1C the results were PABP polyA inh 12, eIF4H FP inh 5, Env fusion inh -33, MT1-MMP act inh 2, Rce1 inh inactive and MT1-MMP act inh RFP 4.

Among those listed so far, these have two or more sulfur atoms.
CCc1sc(C(=O)Nc2cc(S(=O)(=O)N3CCOCC3)ccc2OC)cc1C was read as UUG fidelity -4, Env fusion inh 21, CSC inhib -12, MT1-MMP act inh -8 and MT1-MMP act inh RFP -5.
For CCn1nc(C(=O)Nc2ccc(S(=O)(=O)Nc3nccs3)cc2)c2ccccc2c1=O the results were PABP polyA inh 35, eIF4H FP inh 20, UUG fidelity -6, Env fusion inh -52, CSC inhib -1, MT1-MMP act inh -11, Rce1 inh inactive and MT1-MMP act inh RFP -3.

The list continues.
For O=C(CCSc1nnc2ccc3ccccc3n12)Nc1ccc(F)cc1 the results were PABP polyA inh 0, eIF4H FP inh 3, UUG fidelity -7, MT1-MMP act inh -2, Rce1 inh inactive and MT1-MMP act inh RFP 4.
Screening CCOC(=O)C1=c2/c(=C/c3ccccc3OC)c(N)c(C#N)n2C(=O)C(c2ccccc2OC)S1 (centres undefined) returned PABP polyA inh -4, eIF4H FP inh -6 and Rce1 inh inactive.
Screening CC(Oc1ccc(F)cc1)C(=O)Nc1cccc(S(=O)(=O)N(C)c2ccccc2)c1 (centres undefined) returned UUG fidelity -5, Env fusion inh -7, MT1-MMP act inh 0 and MT1-MMP act inh RFP 3.
For Cc1ccc(S(=O)(=O)Nc2cccc(C(=O)N3CCOCC3)c2)c(C)c1NS(C)(=O)=O the results were PABP polyA inh 7, eIF4H FP inh 2, Env fusion inh -6, CSC inhib -8, MT1-MMP act inh -3, Rce1 inh inactive and MT1-MMP act inh RFP -2.
For O=C(NCc1ccco1)c1ccccc1 the results were PABP polyA inh 5, eIF4H FP inh -4, UUG fidelity -18, Env fusion inh 5, CSC inhib -5, MT1-MMP act inh -4, Rce1 inh inactive and MT1-MMP act inh RFP 0.
COc1ccccc1N1CCN(C(=O)CCc2nnc3ccc(N4CCCC4)nn23)CC1 was read as PABP polyA inh -7, eIF4H FP inh -9, UUG fidelity -22, Env fusion inh 1, CSC inhib 3, MT1-MMP act inh -1, Rce1 inh inactive and MT1-MMP act inh RFP 2.
`CCOC(=O)COc1ccccc1C1Nc2ccccc2C(=O)N1c1cccc(Cl)c1` (centres undefined) gave PABP polyA inh -4, eIF4H FP inh 0, CSC inhib -1, MT1-MMP act inh 8, Rce1 inh inactive and MT1-MMP act inh RFP -1.
Screening CC(C)c1ccc(N2C(=O)[C@@H]3Cc4ccccc4CN3C2=O)cc1 returned PABP polyA inh 11, eIF4H FP inh -3, UUG fidelity -13, Env fusion inh -47, CSC inhib -8, MT1-MMP act inh 4, Rce1 inh inactive and MT1-MMP act inh RFP -2.
N/C(=N\S(=O)(=O)c1ccc(Cl)cc1)N1CCOCC1 was read as PABP polyA inh 7, eIF4H FP inh 5, UUG fidelity -18, Env fusion inh -8, CSC inhib 1, MT1-MMP act inh -1, Rce1 inh inactive and MT1-MMP act inh RFP 2.
`CCOC(=O)NC1C=CS(=O)(=O)C1` (centres undefined) gave PABP polyA inh -13, eIF4H FP inh 1, UUG fidelity -3, CSC inhib -8, MT1-MMP act inh -1, Rce1 inh inactive and MT1-MMP act inh RFP 1.
For O=C(CSc1ccc(-c2nc3ccccc3[nH]2)cn1)Nc1ccc(S(=O)(=O)N2CCCC2)cc1 the results were PABP polyA inh 0, eIF4H FP inh -6, Env fusion inh -31, CSC inhib 5, MT1-MMP act inh 7, Rce1 inh inactive and MT1-MMP act inh RFP 4.
`O=C(/C=C/c1ccco1)N/C(=C\c1ccccc1)C(=O)NCCc1nc2ccccc2[nH]1` gave PABP polyA inh 6, eIF4H FP inh 37, Env fusion inh -15, CSC inhib -2, MT1-MMP act inh -7, Rce1 inh inactive and MT1-MMP act inh RFP -1.
For CCOC(=O)c1c(CSC(=N)N)n(-c2ccc(Br)cc2)c2cc(Br)c(OC(C)=O)cc12 the results were PABP polyA inh -4, eIF4H FP inh 5, UUG fidelity -1, Env fusion inh -28, MT1-MMP act inh -7 and MT1-MMP act inh RFP -4.
For CCOC(=O)c1c(C)[nH]c(C)c1C(=O)COC(=O)c1cccs1 the results were UUG fidelity 7, CSC inhib 1, MT1-MMP act inh 8 and MT1-MMP act inh RFP 4.
For CC(C)(C)S(=O)(=O)N1Cc2cc(CO)cc(CCO)c2[C@H]1CCO the results were UUG fidelity -14, Env fusion inh 17, MT1-MMP act inh 2 and MT1-MMP act inh RFP 4.
Cc1ccc(-c2nc(CS(=O)CC(=O)N3CCN(c4ncccn4)CC3)c(C)o2)cc1 (centres undefined) was read as PABP polyA inh 0, eIF4H FP inh -9, UUG fidelity 15, Env fusion inh 3, CSC inhib 0, MT1-MMP act inh 3, Rce1 inh inactive and MT1-MMP act inh RFP 1.
O=C(c1cccs1)N1CCN(Cc2ccccc2[N+](=O)[O-])CC1 was read as PABP polyA inh -4, eIF4H FP inh 10, CSC inhib 3, MT1-MMP act inh 3, Rce1 inh inactive and MT1-MMP act inh RFP -3.
O=C1C=C(c2ccc(F)cc2OCc2ccccc2)C[C@@H](c2ccc(Cl)cc2)C1 was read as UUG fidelity -7, Env fusion inh 76*, CSC inhib 6, MT1-MMP act inh 0 and MT1-MMP act inh RFP -17.
Screening Cc1ccccc1NC(=O)CSc1nnc2ccc(-c3ccccn3)nn12 returned Env fusion inh 13, CSC inhib -7, MT1-MMP act inh 2, Rce1 inh inactive and MT1-MMP act inh RFP -2.
For O=C(N/N=C/c1ccc(Cl)cc1Cl)c1ccncc1 the results were PABP polyA inh -8, eIF4H FP inh -7, UUG fidelity -19, Env fusion inh 10, CSC inhib -18, MT1-MMP act inh 2, Rce1 inh inactive and MT1-MMP act inh RFP -3.
C[C@@H]1CN([C@@H](C)CO)C(=O)CCCn2nncc2CO[C@H]1CN(C)S(=O)(=O)c1cn(C)cn1 was read as UUG fidelity -18&-10, Env fusion inh 1, MT1-MMP act inh 1 and MT1-MMP act inh RFP 2.
Screening Cc1nc2nc(C)n(-c3ccccc3)c2s1 returned PABP polyA inh 46, eIF4H FP inh 5, UUG fidelity -23, MT1-MMP act inh -3 and MT1-MMP act inh RFP 0.
Screening CC1CCC(CC(=O)O)(C(=O)O)CC1 (centres undefined) returned UUG fidelity -12, Env fusion inh 0, MT1-MMP act inh 2 and MT1-MMP act inh RFP 1.
For COc1cccc(OC)c1C(=O)Nc1ccc2c3c(cccc13)CC2 the results were PABP polyA inh -1, eIF4H FP inh -6, UUG fidelity 5, MT1-MMP act inh 1, Rce1 inh inactive and MT1-MMP act inh RFP 2.
`Cc1ccc(/C=N\NC(=O)Cc2cccn2C)o1` gave PABP polyA inh 15, eIF4H FP inh 5, Env fusion inh 23, CSC inhib -3, MT1-MMP act inh 5, Rce1 inh inactive and MT1-MMP act inh RFP 6.
O=C(O)CN1C(=O)/C(=C\c2cn(CC(=O)N3CCOCC3)c3ccccc23)SC1=S was read as PABP polyA inh -2, eIF4H FP inh inconclusive, Env fusion inh -8, CSC inhib -2, MT1-MMP act inh -129, Rce1 inh inactive and MT1-MMP act inh RFP 1.
Screening COc1ccc(C)cc1NC(=O)c1ccc(OC(F)F)cc1 returned PABP polyA inh 8, eIF4H FP inh 5, Env fusion inh 9, CSC inhib 13, MT1-MMP act inh 1, Rce1 inh inactive and MT1-MMP act inh RFP 3.
COc1cc(C)nc(NCc2ccccc2)n1 was read as PABP polyA inh -1, eIF4H FP inh 2, Env fusion inh -92, CSC inhib -7, MT1-MMP act inh 3, Rce1 inh inactive and MT1-MMP act inh RFP 7.
For COc1ccc(NC(=O)Nc2nc(C(N)C3CCCCC3)cs2)cc1 (centres undefined) the results were UUG fidelity -2, Env fusion inh 27, MT1-MMP act inh -5 and MT1-MMP act inh RFP -3.
Screening Cc1ccc2nc(SCC(=O)NCc3ccc(S(N)(=O)=O)cc3)[nH]c2c1 returned PABP polyA inh 15, eIF4H FP inh 0, UUG fidelity -14, Env fusion inh -18, CSC inhib 0, MT1-MMP act inh 1, Rce1 inh inactive and MT1-MMP act inh RFP 6.
